VDR inh – vitamin D3 receptor (human) inhibition. P11473. VDR-SRC2-3 peptide fluorescence polarization, 2 h. Potency, µM, inactives show max response, negative = inhibition, usual class: inhibitors. hit rate 0.93% among 400,000; active = well fitted inhibition curve with a large enough effect; inconclusive = small, poorly fitted or top-dose-only effect, or another doubt; inactive = no such curve, though single readings can be large or run the other way; also: series mostly up to about 120 µM
Target sequence (P11473 whole entry, looked up): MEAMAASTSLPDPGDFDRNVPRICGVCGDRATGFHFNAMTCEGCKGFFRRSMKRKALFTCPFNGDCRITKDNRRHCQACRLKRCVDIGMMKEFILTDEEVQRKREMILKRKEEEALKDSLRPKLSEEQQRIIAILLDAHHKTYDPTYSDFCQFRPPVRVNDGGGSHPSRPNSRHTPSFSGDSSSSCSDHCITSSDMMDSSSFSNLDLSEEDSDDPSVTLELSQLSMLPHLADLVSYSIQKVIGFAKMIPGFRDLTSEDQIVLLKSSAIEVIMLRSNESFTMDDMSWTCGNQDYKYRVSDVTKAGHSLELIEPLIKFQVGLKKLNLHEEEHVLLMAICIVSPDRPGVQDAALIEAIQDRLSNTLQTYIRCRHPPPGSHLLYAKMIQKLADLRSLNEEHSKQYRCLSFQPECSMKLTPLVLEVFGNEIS
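Compounds are added to VDR with labelled SRC2-3 coactivator peptide and held 2 h at room temperature. Inhibition of the VDR–peptide interaction is then read as a change in fluorescence polarization.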
The depositor's hits bear a star; ? = inconclusive; & = joins results of further samples; [ ] = dose if it differs, or a comment. % is scaled to controls: 0 for no effect and ±100 for the full control effect; potency is read from the fitted curve at half-maximal effect.

compound | VDR inh
COc1cccc(NC(=O)CC2NCCNC2=O)c1 (stereo not given) | -4%
O=C(Nc1cccc(NC(=O)c2ccco2)c1)c1ccccc1 | -2%
Cc1ccc2c(C(=O)CN3CCN(C(=O)c4ccco4)CC3)c(C)[nH]c2c1 | 9%
CCOCC(=O)Nc1c(C(=O)Nc2ccc3c(c2)OCO3)oc2ccccc12 | 6%
Cn1c(=O)c2c(nc(NCC3CCCO3)n2Cc2cccc(Br)c2)n(C)c1=O (stereo not given) | -6%
COc1ccc(N2COC3c4cccc5cccc(c45)C32)cc1 (stereo not given) | -30%
N#CCC(N)=C(C#N)C#N | 11%
COc1ccc(CNC(=S)Nc2ccccc2C)cc1 | -24%
COc1ccc(OC(=O)c2cc(S(=O)(=O)N3CCCC3)ccc2Cl)cc1 | 13%
COc1ccc2c(c1)CCc1c(C(=O)N3CCCc4ccccc43)noc1-2 | -10%
C/C(=N\NC(=S)NCCc1ccccc1)c1ccc(C)cc1 | -1%
O=C(COC(=O)c1ccco1)NCc1ccc(Cl)cc1 | 15%
Cc1ccc(-c2cc(-c3nnc(SCC(=O)NC(C)C(C)C)n3N)c3ccccc3n2)cc1 (stereo not given) | -10%
O=C1/C(=C/c2cccnc2)SC(=S)N1N1CCOCC1 | -4%
CC1CN(c2snnc2C=C2C(=O)OC(C)(C)OC2=O)CC(C)O1 (stereo not given) | -16%
CCc1cccc(NC(=O)c2coc(=O)c3ccccc23)c1 | -25%
Cc1nnc(NS(=O)(=O)c2ccc(F)cc2)s1 | -4%
CCOC(=O)C1=C(C)Nc2ccccc2N/C1=N\S(=O)(=O)c1cc(C(=O)O)ccc1Cl | -12%
O=C(C1CCCN1C(=O)c1cccs1)N1CCN(S(=O)(=O)c2ccc(F)cc2)CC1 (stereo not given) | -7%
Cn1c(=O)c2c(nc3n2CC(CO)O3)n(C)c1=O (stereo not given) | 11%
Cc1occc1-c1nnc(SCC(=O)N2c3ccccc3CCc3ccccc32)n1C | -7%
O=C(c1n[nH]c2c1CCC2)N1CCCC(Nc2cccc(F)c2)C1 (stereo not given) | 0%
COc1ccc(S(=O)(=O)N(C)C)cc1NC(=O)COC(=O)c1nn(C)c(=O)c2ccccc12 | -1%
CCCCN(C)C(=O)c1cn(C)c2ccc(S(=O)(=O)N3CCC(C)CC3)cc2c1=O | 3%&10%
Cc1ccc(CNC(=O)c2cccn2-c2nnc(N3CCCCC3)s2)cc1 | 15%

Looked up one by one from above, 5 records:
compound | VDR inh
O=C(COC(=O)c1ccco1)NCc1ccc(Cl)cc1 | 15%
Cn1c(=O)c2c(nc(NCC3CCCO3)n2Cc2cccc(Br)c2)n(C)c1=O (stereo not given) | -6%
Cc1occc1-c1nnc(SCC(=O)N2c3ccccc3CCc3ccccc32)n1C | -7%
Cc1ccc(CNC(=O)c2cccn2-c2nnc(N3CCCCC3)s2)cc1 | 15%
CCOCC(=O)Nc1c(C(=O)Nc2ccc3c(c2)OCO3)oc2ccccc12 | 6%

Ordered by molar mass (smallest number first): three of the compounds above
compound | VDR inh
CCc1cccc(NC(=O)c2coc(=O)c3ccccc23)c1 | -25%
COc1ccc(N2COC3c4cccc5cccc(c45)C32)cc1 (stereo not given) | -30%
Cc1occc1-c1nnc(SCC(=O)N2c3ccccc3CCc3ccccc32)n1C | -7%

(continued)
compound | VDR inh
O=S1(=O)C=C(SCc2ccc(Cl)c(Cl)c2)Nc2ccccc21 | 34%[activator]
CCCCC(=O)Nc1ccc(C(=O)NCCc2ccc(S(N)(=O)=O)cc2)cc1 | 16%
COc1ccc(Nc2nc(N)nc(CSc3nnc(C)s3)n2)cc1 | 10%
CC1(C(=O)N/N=C/c2cc3c(cc2Br)OCO3)CC1(Br)Br (stereo not given) | -7%
N#CCCn1[nH]c(-c2ccccc2)cc1=O | -7%
Cc1ccc(C)c(N2CCN(C(=O)c3cc(S(=O)(=O)N4CCCCC4)cn3C)CC2)c1 | 6%
O=C1N/C(=N/N=C/c2ccccc2O)SC1Cc1ccc(F)cc1 (stereo not given) | -21%
COc1cc([N+](=O)[O-])ccc1NC(=O)N1CCN(c2cc(-c3noc(C)n3)ccc2C)CC1 | 10%
CCc1ccc(C2=C(C)C(N3CCC(C(=O)NCc4ccccc4)CC3)=NS2(=O)=O)cc1 | 14%
COc1cccc(C2=CC(=O)CC(C)(C)C2)c1 | -18%
O=c1ccncn1C1OC(CO)C(O)C1O (stereo not given) | -12%
COc1ccc(C)cc1NS(=O)(=O)c1ccc(Cl)nc1 | 14%
N/C(=N\OC(=O)CCCc1ccccc1)c1ccc(Br)cc1 | -2%
COc1ccc(C)cc1NC(=O)c1sc2ncnc(N3CCN(c4ccccn4)CC3)c2c1C | -6%
COc1ccc(/C(C)=N/N2CCCCC2)c(O)c1 | -9%
O=C(Cc1noc2ccccc12)NNC(=S)Nc1ccc(Cl)cc1 | -13%
COCC(=O)Nc1ccc(N(C)C)cc1 | 5%
Cc1cccc(N(CC(=O)NCCSCc2ccco2)S(=O)(=O)c2ccccc2)c1 | -9%
CC(C)(C)c1ccc2c(c1)OC(C(=O)N/N=C\c1ccccn1)CO2 (stereo not given) | -14%
Fc1ccc(-c2noc3ncnc(N4CCCCC4)c23)cc1 | 8%
O=C(O)c1cccc(Nc2ncnc3sccc23)c1 | 7%
COc1ccc(CCNC(=O)CN(c2cc([N+](=O)[O-])ccc2OC)S(C)(=O)=O)cc1OC | -3%
C/C(CCC1CC(C)OC1=O)=N\NC(N)=O (stereo not given) | -14%
CC1CN(S(=O)(=O)c2ccc(NC(=O)CCCN3C(=O)c4ccccc4C3=O)cc2)CC(C)O1 (stereo not given) | 3%
Cc1ccc(-c2cc(C(=O)Nc3c(C)n(C)n(-c4ccccc4)c3=O)c3ccccc3n2)cc1 | -15%

Continued.
compound | VDR inh
CCS(=O)(=O)c1nc(S(=O)(=O)c2ccc(Cl)cc2)c(NCc2ccc(Cl)cc2)s1 | -3%
CC(C)(C)OC(=O)C1=NOC2(C=CC(=O)C=C2)C1 | 28µM*
COc1ccccc1/C=C/C(=O)NCCc1ccccn1 | 27%
COc1cccc(CNC(=O)c2nnn(CC(=O)Nc3c(C)cccc3C)c2N)c1 | 1%
NS(=O)(=O)OCCCCCc1ccccc1 | 11%
COc1ccccc1N(CC(=O)Nc1ccccc1C(=O)N1CCOCC1)S(C)(=O)=O | 16%
COc1ccccc1C(=O)N1CCc2ccccc21 | -2%
O=C(CSc1cccc[n+]1[O-])c1cc(Cl)ccc1Cl | -13%
O=[N+]([O-])c1c(C(Cl)Cl)nn(-c2ccc(Cl)cc2)c1N1CCCCC1 | -4%
O=C(Nc1cccc(Br)c1)c1ccc(Cl)c(S(=O)(=O)N2CCOCC2)c1 | 5%
Cc1cc(C)c(OCCN(C)C)c(Cl)c1 | -10%
O=C(Nc1ccc(N2CCCC2)c(Cl)c1)c1cccs1 | -12%
O=C(Nc1ccc(Cl)cc1F)c1ccccc1Br | -14%
O=C(Nc1cccc([N+](=O)[O-])c1)C1CC(=O)N(C2CCCCC2)C1 (stereo not given) | -12%
O=C(O)CCCNC(=O)CCCNC(=O)C(c1ccccc1)c1ccccc1 | 1%
O=C(/C=C/c1ccccc1Cl)c1ccccc(=O)c1O | 28µM*
CC(OC(=O)C1CCN(c2ccc(C(F)(F)F)cn2)CC1)C(=O)Nc1ccc(S(N)(=O)=O)cc1 (stereo not given) | -15%
CSc1ccccc1C(=O)NC1CCCN(Cc2ccccc2F)C1 (stereo not given) | 1%
O=S(=O)(c1ccc(-n2cnnn2)cc1)N1CCNCC1 | 5%
CN1CCN(CC(=O)Nc2ccc(Cl)cc2Cl)CC1 | -6%
N=C1C(=O)OCC1c1ccccc1NC(=O)c1ccc(F)cc1 (stereo not given) | -9%
CC1CCCCN1Cc1c(O)ccc2c(=O)c(-c3ccc(Br)cc3)coc12 (stereo not given) | 20%
Cc1nn(-c2ccccc2)c(C)c1NC(=O)COc1ccc([N+](=O)[O-])cc1 | 4%
CCc1ccc(S(=O)(=O)c2nnn3c2nc(N(CC)Cc2ccccc2)c2cc(Cl)ccc23)cc1 | -3%
C=CCN(c1ccccc1)S(=O)(=O)c1cccc(C(=O)NC2CCC(O)CC2)c1 (stereo not given) | 8%

Next structures:
compound | VDR inh
CC(=O)OCC(=O)C1CCC2C3CCC4=CC(=O)C=CC4(C)C3CCC12C (stereo not given) | -7%
CCCCSCCCNC(=O)c1ccc2c(c1)N(CC)C(=O)c1ccccc1S2=O (stereo not given) | 15%
CCOc1ccc2c(C)nc(NC3=NC(C)(C)C=C(C)N3)nc2c1 | 1%
Cc1ccc(/C=C2\SC(=S)N(c3cccnc3)C2=O)cc1 | -24%
Cc1ccc2oc(C(=O)Nc3sc4c(c3C(=O)NCc3ccccc3)CCCC4)cc(=O)c2c1 | 9%
COC(=O)c1ccc(NC(=O)CN(c2ccc3c(c2)OCO3)S(C)(=O)=O)cc1 | -9%
Cc1cccc(Cn2nc(C)n3c(cc4cc(C)ccc43)c2=O)c1 | 14%
CCN(CC)CCCNC(=O)c1cc(Cl)c(NC(=O)C2=C(C)OCCS2)cc1OC | 4%
Cc1ccc(C)c(NS(=O)(=O)c2cc(C(=O)NCCSC3CCCCC3)ccc2C)c1 | -12%
COc1cc(/C=C/C(=O)O)cc(S(=O)(=O)Nc2ccc3c(c2)OCO3)c1OC | -2%
O=C(COc1ccccc1/C=C1\SC(=S)NC1=O)Nc1ccc(F)cc1 | 2%
CN(C)CCCN(C(=O)C1=COCCO1)c1nc2ccc(Br)cc2s1 | -11%
COC(=O)c1sc(N)c(C(=O)OC)c1CSc1nnc(-c2ccccc2Cl)n1C | -5%
CCOc1ccc(C(=O)CCC(=O)Nc2ccccc2C)cc1 | -2%
O=C(CN1C(=O)NC2(CCCc3ccccc32)C1=O)NCc1ccc(Cl)cc1Cl (stereo not given) | -4%
CC(C(=O)N(C)Cc1ccccc1)N1CCN(C/C=C/c2ccccc2)CC1 (stereo not given) | -9%
CCCCn1c(N)c(N(CCC(C)C)C(=O)C2CC(=O)N(CCc3ccc(OC)c(OC)c3)C2)c(=O)[nH]c1=O (stereo not given) | 19%
C[C@@]12C(=O)Nc3cc(F)c(F)cc3C(=O)N1[C@H]1c3cc(Cl)ccc3OC[C@@H]1[C@@H]2c1ccccc1 | -11%
COC(=O)C1C2CC(=O)C(C2)C1C(=O)OC (stereo not given) | -18%
CC1CC(NS(=O)(=O)c2cc3c4c(c2)CCN4C(=O)CC3)CC(C)(C)C1 (stereo not given) | 2%
Cc1ccc(Nc2c(F)c(F)c(F)c(F)c2C(=O)O)cc1 | 5%
CCOC(=O)C1CCN(C(c2ccccn2)c2c(C)[nH]c3ccccc23)CC1 (stereo not given) | ?
CCC(CC)C(=O)Nc1cccc(-c2nc3ccccc3s2)c1 | 9%
Cc1ccc(S(=O)(=O)n2nc(C)c(C#N)c2N)cc1 | ?
CN(C(=O)c1cccc(NC(=O)Cc2cccc(NC(=O)C3CCN(C(=O)C4CCC4)CC3)c2)c1)C1CCC1 | -21%

Next part:
compound | VDR inh
CC(C)C1COS(=O)(=O)NC1CC(=O)SC(C)(C)C (stereo not given) | -21%
Cc1ccc(S(=O)(=O)N2CCCN(C(=O)CNC(=O)c3cccc(C)c3)CC2)cc1 | -3%
O=C(NNc1ccccc1)C(CCO)C(=O)NNc1ccccc1 | 8%
CCNc1ncc2nc(-c3ccccc3)c(=O)n(-c3ccc(OC)cc3)c2n1 | -1%
O=C(O)c1ccc(S(=O)(=O)c2ccc3c(c2)C(=O)N(c2ccc(O)cc2)C3=O)cc1 | -19%
CCOC(=O)c1cc(NC(=O)N(C(C)C)C2CCCCC2)c(C)nc1C | -16%
COc1ccc(NC(=O)C(=O)N/N=C/c2cc(C)n(-c3cccc(Cl)c3Cl)c2C)c(OC)c1 | -13%
CCn1c(SCC(=O)Nc2ccc3[nH]c(=O)[nH]c3c2)nnc1-c1ccccc1 | 2%
Cc1ccc(OCc2nnc(N)s2)cc1C | 8%
COc1ccccc1NC(=O)Cn1cncc1-c1ccc([N+](=O)[O-])cc1 | -11%
COC(=O)Cc1c(O)ccn(Cc2cccc3ccccc23)c1=O | -1%
O=C(NCc1ccccc1Cl)C(=O)c1c[nH]c2ccccc12 | 0%
O=Cc1c(NCCN2CCOCC2)c2ccccc2[nH]c1=O | -3%
Nc1ccnc(C(F)(F)F)c1C(=O)c1ccccc1 | 3%
CC(NC(=O)c1ccc(F)cc1)c1nc2ccccc2n1Cc1ccccc1F (stereo not given) | 68%[activator]
Cc1cc(NC2C3CC4CC(C3)CC2C4)n2nnnc2n1 (stereo not given) | 11%
Cc1ccccc1CC1(CO)CCCN(Cc2nc(-c3cccs3)oc2C)C1 (stereo not given) | 1%
CN(CC(=O)Nc1ccc(F)cc1)C(=O)c1ccc(OCc2ccccc2)cc1 | 10%
COc1ccc(-n2c(SCC(=O)Nc3ccc(C(N)=O)cc3)nc3ccccc3c2=O)cc1OC | -6%
Cc1c(-c2ccccc2)c(=O)oc2c(CN3CCOCC3)c(O)ccc12 | 2%
CCOC(=O)C1(CCOC)CCN(Cc2ccc(C(=O)OC)cc2)CC1 | 16%
CCOc1ccc(N(Cc2cc3cc(C)ccc3[nH]c2=O)S(=O)(=O)c2ccccc2)cc1 | -3%
CCC(C)COC(=O)c1ccc(C(=O)O)cc1 (stereo not given) | -9%
CCOC(=O)C1=C(CSc2nc(C)cc(C)c2C#N)OC(N)=C(C#N)C1c1cccs1 (stereo not given) | -2%

Compounds listed so far containing a tert-butyl group (three):
compound | VDR inh
CC(C)(C)c1ccc2c(c1)OC(C(=O)N/N=C\c1ccccn1)CO2 (stereo not given) | -14%
CC(C)(C)OC(=O)C1=NOC2(C=CC(=O)C=C2)C1 | 28µM*
CC(C)C1COS(=O)(=O)NC1CC(=O)SC(C)(C)C (stereo not given) | -21%

This is a subset. The share of hits here may be higher or lower than overall.
